# gsp antagonist = antagonizes gsp, the McCune-Albright syndrome mutation | gsp-mutant cells, cAMP HTRF, 30 min; control for the full effect not named in the record | Potency, µM (doses to about 76.9 µM), without a hit: at the highest dose activity change, negative = inhibition, most hits filed as inhibitors | hit rate 0.4% among 340,000; active = falling curve of any shape with a large fitted effect; inconclusive = falling curve, mostly with a smaller effect; inactive = flat or rising curve; cell line not stated here;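 further: intracellular cAMP measured with PDE inhibitor Ro 20-1724 present during compound exposure; potency means the concentration at half of the fitted maximal effect; on the % scale 0 is the no-effect control and ±100 the full control effect; nearly all actives have a fitted effect of over 65% in size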
#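 Cells, 2000/well, grown 16–24 h in DMEM 10% FBS with 0.5 mg/ml G418, then compounds plus […] (300 uM addition stock), 30 min at 37C. cAMP read by HTRF (cAMP-d2 and anti-cAMP antibody-K in lysis buffer) after 30 min RT.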
# Menin-MLL FL inh = inhibitors of human menin-MLL interaction, wild-type MLL peptide; FP activity change, % at 61.4 µM; Fluorescence polarization, fluorescein-MLL peptide displacement from menin; 290,000 tested, under 10 active; AID 1766; inconclusive = falling polarisation curve, or a change in total fluorescence; inactive = total fluorescence flat and polarisation flat or rising; no compound was filed as active; the % refers to the polarisation; negative = inhibition;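 further: % of control where 0% means no effect; inhibitors lower the polarisation; unlabelled MLL peptide was the positive control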
# Sfp PPTase inh = inhibitors of Bacillus subtilis Sfp phosphopantetheinyl transferase; Q9F4F7; Biochemical Sfp PPTase activity, qHTS; Potency, µM, inactives show max response, negative = inhibition, most hits filed as inhibitors; hit rate 3.5% among 310,000; active means well fitted inhibition curve with a large enough effect; inconclusive means small, poorly fitted or top-dose-only effect, or another doubt; inactive means no such curve, though single readings can be large or run the other way;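 further: the enzyme is Sfp with the accession as filed and its product quenches rhodamine fluorescence; potency means the concentration at half of the fitted maximal effect; 0% = enzyme reaction without inhibitor and -100% = no enzyme wells; top concentration of the series not given in the record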
#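 Reaction rates are the 30-min fluorescence difference (ex 525, em 598 nm) in wells containing 15 nM Sfp, 5 uM rhodamine-CoA and 12.5 uM BHQ-2-YbbR at pH 7.6 with 10 mM MgCl2.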
# gsp ag = gsp mutant agonism | hit rate 0.13% among 340,000 | Potency, µM (titrated, usually from 76.9 µM), for the others: at the top dose activation (cAMP increase), most hits filed as activators | AID 624287 | gsp mutant cells, cAMP HTRF, 30 min; control for the full effect not named in the record; active = well fitted activation curve with a large enough effect; inconclusive = small, poorly fitted or top-dose-only effect, or another doubt; inactive = no such curve, though single readings can be large or run the other way; cell line not stated here;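 further: phosphodiesterase inhibitor Ro 20-1724 added with compounds to block cAMP breakdown; potency means the concentration at half of the fitted maximal effect; nearly all actives have a fitted effect of over 60% in size; about a fifth of the inactives were tested at one dose only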
#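 Cells in DMEM/10% FBS with G418 were pretreated with compounds in DMSO plus […] (300 uM stock) for 30 min at 37C. cAMP was measured by HTRF (cAMP-d2 plus anti-cAMP antibody-K) after 30 min at room temperature.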
# ClpP mod = qHTS Assay for Activators of ClpP | ATP-dependent Clp protease proteolytic subunit (Bacillus subtilis (strain 168)), P80244 | purified B. subtilis ClpP, FRET peptide cleavage, 20 min | Potency, µM (series often up to 57.5 µM), for the others: top-dose activity change, negative = active | hit rate 1.9% among 340,000; active = well fitted falling curve with a large enough effect; inconclusive = small, poorly fitted or top-dose-only effect; inactive = no such curve, though single readings can be large or run the other way; further: potency means the concentration at half of the fitted maximal effect; the source files actives as falling curves though it sought activators and does not explain the sign; nearly all actives have a fitted effect of over 65% in size; many hits overshoot -100%
# Target sequence (P80244 whole entry, looked up): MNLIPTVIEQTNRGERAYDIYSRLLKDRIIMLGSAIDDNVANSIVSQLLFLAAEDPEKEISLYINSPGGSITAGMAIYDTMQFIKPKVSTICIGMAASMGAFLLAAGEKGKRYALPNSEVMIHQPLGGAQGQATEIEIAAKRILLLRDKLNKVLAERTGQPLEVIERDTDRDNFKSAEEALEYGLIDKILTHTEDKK
#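 ClpP 10 microg/mL final, pH 8 Tris/KCl buffer with BSA, glycerol, Tween-20; compound pinned in; FRET-FV substrate; RT 20 min; Ex320/Em430; ΔFRET vs ADEP 5.8 microM, DMSO, no enzyme.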
# CtBP-E1A inh = CtBP/E1A binding inhibition; AlphaScreen GST-E1A/His-CtBP binding, 1536-well; hits give low values; control for the full effect not named in the record; activity change, % (concentration not given with the values); hit rate 0.49% among 340,000; AID 651724; in the data active means activity change below about -65%; inconclusive means about -30% to -65%; inactive means above about -30%; further: on the % scale 0 is the no-effect control and ±100 the full control effect
#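 In 5 uL wells, 23 nL compound meets equimolar GST-E1A and His-CtBP (5X stock 125 nM each) for 2 h, 37 °C. Beads (5X, 50 ug/mL) then 1 h, 37 °C, dark.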
# TRPV1 potentiator = potentiators of human vanilloid receptor 1 (TRPV1) | Q8NER1 | TRPV1-expressing cells, Fluo-8 calcium influx, capsaicin EC20 potentiation; host cell line not named in the record; control for the full effect not named in the record | potentiation, % at 8.33 µM | hit rate 0.02% among 320,000 | AID 540277; active means potentiation above 80%; inconclusive means 30% to 80%; inactive means below 30%; further: 0% is about no effect
# Target sequence (Q8NER1 whole entry, looked up): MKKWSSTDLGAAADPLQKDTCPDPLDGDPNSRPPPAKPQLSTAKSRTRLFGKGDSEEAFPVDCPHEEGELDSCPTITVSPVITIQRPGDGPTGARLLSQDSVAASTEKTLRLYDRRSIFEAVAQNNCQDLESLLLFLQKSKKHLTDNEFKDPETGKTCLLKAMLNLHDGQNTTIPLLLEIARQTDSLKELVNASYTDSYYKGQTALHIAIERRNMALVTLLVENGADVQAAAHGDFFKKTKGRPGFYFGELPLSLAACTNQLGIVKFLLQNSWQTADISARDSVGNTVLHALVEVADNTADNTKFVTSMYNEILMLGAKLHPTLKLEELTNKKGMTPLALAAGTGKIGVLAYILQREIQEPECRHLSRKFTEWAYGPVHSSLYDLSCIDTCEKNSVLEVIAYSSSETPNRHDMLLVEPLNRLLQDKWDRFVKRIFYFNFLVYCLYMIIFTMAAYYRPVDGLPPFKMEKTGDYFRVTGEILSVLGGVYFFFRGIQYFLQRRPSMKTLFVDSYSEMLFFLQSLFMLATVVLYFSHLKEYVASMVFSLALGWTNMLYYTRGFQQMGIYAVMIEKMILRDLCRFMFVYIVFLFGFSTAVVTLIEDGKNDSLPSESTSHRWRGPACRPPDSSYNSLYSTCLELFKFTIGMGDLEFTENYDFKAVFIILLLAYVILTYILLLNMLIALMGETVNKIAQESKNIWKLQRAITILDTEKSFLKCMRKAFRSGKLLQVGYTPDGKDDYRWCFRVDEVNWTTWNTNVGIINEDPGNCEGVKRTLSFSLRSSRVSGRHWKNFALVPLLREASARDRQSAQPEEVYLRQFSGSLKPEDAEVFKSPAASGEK
#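 Cells expressing TRPV1 were dye-loaded with Fluo-8 and read kinetically: 10 s baseline, 3 min after compound (agonist portion), then 2 min after EC20 capsaicin (allosteric enhancer portion). Calcium-bound dye fluorescence at 480/520 nm.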
# * marks the source's active call; other numbers are inactive results; ? = inconclusive; · = no result given; & = joins results of further samples; [ ] = dose if it differs, or a comment.
# The first three entries, to show the layout:
SMILES,gsp antagonist,Menin-MLL FL inh,Sfp PPTase inh,gsp ag,ClpP mod,CtBP-E1A inh,TRPV1 potentiator
COCCNC(=O)c1ccc(N(C)S(=O)(=O)c2ccc(OC)c(OC)c2)cc1,8%,-2.5,13%,0%,-0.8%,0,?
CC1CCCCN1Cc1ccc(N)cc1 (stereo not drawn),14%,1.7,11%,-5%,-0.5%,9,3
CCNC(=O)Nc1cc2nc(C)n(Cc3ccc(Br)cc3)c2nc1C,0%,0.3,10%,10%,-13%,-7,16

# The whole of this part, previewed entries included:
SMILES,gsp antagonist,Menin-MLL FL inh,Sfp PPTase inh,gsp ag,ClpP mod,CtBP-E1A inh,TRPV1 potentiator
COCCNC(=O)c1ccc(N(C)S(=O)(=O)c2ccc(OC)c(OC)c2)cc1,8%,-2.5,13%,0%,-0.8%,0,?
CC1CCCCN1Cc1ccc(N)cc1 (stereo not drawn),14%,1.7,11%,-5%,-0.5%,9,3
CCNC(=O)Nc1cc2nc(C)n(Cc3ccc(Br)cc3)c2nc1C,0%,0.3,10%,10%,-13%,-7,16
CCn1ncc(Br)c1C(=O)Nc1ccc(OC(F)(F)F)cc1,-1%,-0.5,13%,4%,-0.9%,·,-5
O=C(Cn1cnc2c(nc3n2CCCCC3)c1=O)Nc1cccc(C(F)(F)F)c1,-2%,-6.3,-1%,-1%,2.4%&0.1%,·,9
Cc1c(NC(=S)NC(=O)COc2ccccc2)c(=O)n(-c2ccccc2)n1C,6%,·,8%,?,-3.2%,0,5
CCOc1ccc(N(CC(=O)NCCCOC)S(C)(=O)=O)cc1,10%,-0.9,0%,-7%,-3.5%,5,-4
Cc1ccc(C)c(COC(=O)c2cc(S(=O)(=O)N3CCCCC3)ccc2N2CCOCC2)c1,-11%,·,·,8%[15.4 µM],?,0,8
CN(CC(=O)Nc1cccc(F)c1)C(=O)C1CC(=O)N(CCc2ccccc2)C1 (stereo not drawn),15%,·,·,-9%[15.4 µM],-0.8%,4,0
O=C1OCCC1Sc1nnc(-c2ccc3c(c2)OCO3)n1-c1ccccc1 (stereo not drawn),7%,4.4,22%,15%,-0.9%,0,0
Cn1c(=O)[nH]c(=O)c2c1nc(CN1CCN(c3ccc(F)cc3)CC1)n2CCCc1ccccc1,13%,-1.8,0%,17%,-0.8%,-5,2
COc1ccccc1C(CNC(=O)C(C)Oc1ccc(Br)cc1)N1CCCC1 (stereo not drawn),14%,·,·,-8%[15.4 µM],·,2,-15
COC(=O)C1=C(NC(=O)c2ccc(C)c(C)c2)CCS1,8%,-2.5,14%,24%,0.2%,17,0
CCC(=O)N1CCc2cc(S(=O)(=O)CCC(=O)N3CCN(c4ccc(F)cc4)CC3)ccc21,-12%,0.7,2%,-1%,-1.6%,4,-4
O=C(Cc1cccs1)N1CCCC(c2nc(-c3ccc(S(=O)(=O)N4CCCC4)cc3)no2)C1 (stereo not drawn),?,-4.7,6%,-25%,-1.7%,4,6
COc1cc2cc(C(=O)N/N=C/c3ccc(F)cc3)[nH]c2cc1OC,-4%,-2.7,-16%,-25%,-25%,-8,10
COC(=O)c1c(NC(=O)c2c(C)noc2C)sc2c1CCCCCC2,·,2.7,10%,·,·,·,6
CCOc1ccc(C2C3=C(CCCC3=O)Nc3nc(C(F)(F)F)nn32)cc1OC (stereo not drawn),-3%,0.7,14%,13%,-20%,-4,-9
O=C(Cc1ccccc1F)Nc1cc(S(=O)(=O)N2CCCC2)ccc1Cl,-4%,·,·,17%,-1.2%,-1,10
CC(C)CN(C(=O)c1cc(=O)[nH]c2ccccc12)c1c(N)n(Cc2ccccc2)c(=O)[nH]c1=O,8%,·,·,5%[15.4 µM],·,4,-5

# Some of the entries above in another layout.
Compound | gsp antagonist | Menin-MLL FL inh | Sfp PPTase inh | gsp ag | ClpP mod | CtBP-E1A inh | TRPV1 potentiator
Cc1c(NC(=S)NC(=O)COc2ccccc2)c(=O)n(-c2ccccc2)n1C | 6% | · | 8% | ? | -3.2% | 0 | 5
Cc1ccc(C)c(COC(=O)c2cc(S(=O)(=O)N3CCCCC3)ccc2N2CCOCC2)c1 | -11% | · | · | 8%[15.4 µM] | ? | 0 | 8
COCCNC(=O)c1ccc(N(C)S(=O)(=O)c2ccc(OC)c(OC)c2)cc1 | 8% | -2.5 | 13% | 0% | -0.8% | 0 | ?
COc1ccccc1C(CNC(=O)C(C)Oc1ccc(Br)cc1)N1CCCC1 (stereo not drawn) | 14% | · | · | -8%[15.4 µM] | · | 2 | -15
COC(=O)c1c(NC(=O)c2c(C)noc2C)sc2c1CCCCCC2 | · | 2.7 | 10% | · | · | · | 6
CCNC(=O)Nc1cc2nc(C)n(Cc3ccc(Br)cc3)c2nc1C | 0% | 0.3 | 10% | 10% | -13% | -7 | 16

# Continuation.
SMILES,gsp antagonist,Menin-MLL FL inh,Sfp PPTase inh,gsp ag,ClpP mod,CtBP-E1A inh,TRPV1 potentiator
O=C(c1cccs1)N1CCCN(c2ncnc3scc(-c4ccccc4)c23)CC1,-10%,-3.5,9%,3%[15.4 µM],·,-7,8
CS(=O)(=O)c1ccc2nc(NC(=O)CN3CCCCCC3)sc2c1,7%,2.6,-29%,-7%,-3.1%,2,0
COC(=O)c1cc(Br)c(=O)n(-c2cc(C)on2)c1,17%,-0.2,6%,0%,-4.4%,4,-8
O=C(/C=C/c1ccc(Cl)cc1Cl)N1CCN(c2ccc([N+](=O)[O-])c(N3CCOCC3)c2)CC1,-14%,-0.1,-2%,?,0.7%,0,?
Cc1cc(C)cc(OCCn2nnc3ccccc32)c1,-2%,-0.2,-7%,0%,0.1%,18,6
CSc1nc2nccc(-c3ccc4c(c3)OCO4)n2n1,-4%,-2.2,15%,-30%[15.4 µM],·,0,-20
OCCN1CCN(C(=S)c2ccc(Cl)cc2)CC1,6%,-1.3,-78%,-52%[inhibitor],-3.5%,-3,-8
CC(C)(O)c1[nH]c2ccc(C#N)cc2c1C(C)(C)O,9%,9.2,0%,8%,-0.3%,7,3
COc1ccc(O)c(-c2nc(N)nc(N)n2)c1,6%,·,·,·,-1.0%,-4,1
CCC(=O)N1CCCc2cc(S(=O)(=O)N3CCN(c4ccccn4)CC3)ccc21,-39%,1.5,6%,-1%,?,6,-3
Cc1ccc(-n2c(-c3ccco3)nc3nc4ccccc4nc32)cc1F,-11%,-1.0,1%,0%,2.8µM*,12,14
O=C1S/C(=C\c2cccs2)C(=O)N1c1ccc(O)cc1,-4%,3.8,3%,1%,1.3%,·,5
COC(=O)Cn1c(=NC(=O)c2nc3ccccc3s2)sc2cc(S(C)(=O)=O)ccc21,·,4.3,-4%,·,·,·,0
CCc1ccc(-n2c(Cc3ccccc3)n[nH]c2=S)cc1,-2%,-3.0,-4%,-2%[15.4 µM],-5.8%,4,-8
N#Cc1ccsc1NC(=O)CCS(=O)(=O)c1ccccc1,0%,·,-7%,7%,-3.4%,-12,3
Cc1cc(C)n(-c2c(F)c(F)c(CN3CCCCC3)c(F)c2F)n1,3%,1.2,7%,-2%,1.5%,-5,17
CN(C)CCN1C(=O)C(=O)/C(=C(/O)c2ccc(S(=O)(=O)N3CCOCC3)cc2)C1c1ccc(F)cc1 (stereo not drawn),1%,·,5%,-8%,0.5%,14,0
CCOc1cccc(N2C(=O)CC(N(CCc3ccc(OC)c(OC)c3)C(=O)CC)C2=O)c1 (stereo not drawn),-5%,0.1&3.2,8%&17%,-18%,0.2%,-7,-8&2
Cc1[nH]c2ccccc2c1/C=N/Nc1ccccn1,·,-6.3,?,·,·,·,0
CCn1nc(C)c(CNC(=O)CC2C(=O)NCCN2CC(C)(C)C)c1C (stereo not drawn),16%,1.3,15%,-74%[inhibitor],-0.7%,10,-14
COC(=O)[C@]1(C)N[C@H](CN(C)S(=O)(=O)c2ccc(OC(F)(F)F)cc2)[C@@H]2C(=O)N(Cc3ccccc3)C(=O)[C@@H]21,-7%,·,·,·,0.7%,1,·
CC(=O)c1cccc(OCc2cc(C(=O)N(C)C(C)c3ccccn3)no2)c1 (stereo not drawn),-10%,-4.2,8%,-2%[15.4 µM],0.5%,5,-10
O=C(Nc1ccc(NC(=O)C2CC2)nc1)c1ccccn1,-21%,-1.9,-27%,-3%,0.7%,-1,-12
Cc1ccccc1OCC(=O)Nc1cccc(C(=O)O)c1,·,-2.1,12%,14%[15.4 µM],·,26,-12
COC(=O)c1sccc1NC(=O)CN1CCN(c2ccc(F)cc2)CC1,-15%,-0.3,-12%,16%,-3.2%,-2,-1
CCN(C(=O)COC(=O)C(c1ccccc1)c1ccccc1)c1c(N)n(Cc2ccccc2)c(=O)[nH]c1=O,10%,·,·,-23%,-1.0%,·,·
COc1cccc(C(=O)COC(=O)CCC(=O)c2ccccc2)c1,5%,·,13%,-2%,-1.4%,·,-6
CCCOc1ccccc1-n1sc2c(c1=S)-c1cc(OC)cc3c1N(C(=O)C3=O)C2(C)C,-11%,3.1,-2%,0%,-1.7%,1,-4

# Two of these compounds in a different format:
molecule | gsp antagonist | Menin-MLL FL inh | Sfp PPTase inh | gsp ag | ClpP mod | CtBP-E1A inh | TRPV1 potentiator
CC(=O)c1cccc(OCc2cc(C(=O)N(C)C(C)c3ccccn3)no2)c1 (stereo not drawn) | -10% | -4.2 | 8% | -2%[15.4 µM] | 0.5% | 5 | -10
COC(=O)c1sccc1NC(=O)CN1CCN(c2ccc(F)cc2)CC1 | -15% | -0.3 | -12% | 16% | -3.2% | -2 | -1
